Mtb growth = Mycobacterium tuberculosis H37Rv growth inhibition, cell based, confirmatory dose response (AID 1949). one-dose inhibition, % at 10 µg/mL; IC50 in µg/mL for titrated hits. M. tuberculosis H37Rv growth inhibition. most inactive calls were filed without a number and no value below 0 was filed. 100,000 compounds, 1.6% hits;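 active = confirmed in a dose series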;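 note: bacteria grown 7 days with compound before Alamar blue readout; 0% = untreated bacteria and 100% = reference antibiotic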
* = called active by the depositor; i = inactive.

SMILES	Mtb growth
O=C(COc1ccc([N+](=O)[O-])cc1)Nc1ccc(S(=O)(=O)NCCc2ccccc2)cc1	i
O=C(/C=C/c1cc([N+](=O)[O-])ccc1O)c1ccc(Cl)cc1	1.2µg/mL*
Cn1c(SCC(=O)n2c3c(c4ccccc42)CCCC3)nnc1-c1cccc(N)c1	i
COc1ccc(Cl)cc1C(=O)Nc1ccc(S(=O)(=O)N2CCCCC2)cc1	i
CCc1ccc(-c2cc(C(=O)Nc3cccc(C)n3)c3ccccc3n2)cc1	5%
N#Cc1ccccc1NC(=S)NC(=O)c1ccccc1[N+](=O)[O-]	i
CCOc1ccc(C(=O)NC(=S)Nc2cc(C)c(O)c(-c3nc4ccccc4s3)c2)cc1	i
CCC(=O)Nc1ccc(Br)c(C)c1	1%
CCn1c(SCC(=O)Nc2oc(-c3ccccc3)c(-c3ccccc3)c2C#N)nnc1-c1ccncc1	1%
CCOC(=O)c1c(-c2cccc([N+](=O)[O-])c2)csc1NC(=O)CN1C(=O)c2ccccc2C1=O	i
CCC(CC)C(=O)Nc1nnc(C)s1	i
O=C(C1CCCO1)N1CCN(C(=S)Nc2ccc(Br)cc2)CC1 (stereo not drawn)	i
O=C(CSc1nsc(SCC(=O)Nc2ccc(Cl)cc2)n1)Nc1ccc(Cl)cc1	i
O=C(OCc1ccc(Cl)c(Cl)c1)c1cccnc1	i
Cc1nn(CC(=O)N2CCCCC2)c(=O)c2ccccc12	i
COC(=O)c1c(NC(=O)c2ccc(Cl)s2)sc(C)c1C	i
COC(=O)C(NC(=O)c1ccc(S(=O)(=O)N2CCCCC2)cc1)C(C)C (stereo not drawn)	i
O=S(=O)(c1cccs1)N1CCN(c2cccc(Cl)c2)CC1	i
CC(=O)Nc1ccc(OCc2ccc(F)cc2)cc1	10%
CS(=O)(=O)N(CC(=O)N1CCCCC1)c1ccccc1F	i
Cc1ccc(N(CC(=O)Nc2cc(Cl)ccc2C)S(C)(=O)=O)cc1C	i
CCOc1cc(CNc2cc(Cl)ccc2C)cc(I)c1OC	i
Cc1ccc(S(=O)(=O)N2CCN(C(=O)c3ccccc3)CC2)c(C)c1NS(C)(=O)=O	i
Cc1ccc(NC(=O)CN(Cc2ccccc2)S(=O)(=O)c2ccc(F)cc2)c(C)c1	6%
Cc1ccc(N2C(=O)CN=C2Nc2nc(C)cc(C)n2)c(C)c1	i

Continued.
SMILES	Mtb growth
Cc1ccc(NS(=O)(=O)c2ccc(NS(=O)(=O)c3ccc(Br)cc3)cc2)cc1	i
O=C1CCCC2=C1C(c1cccc(F)c1)c1c([nH]c(=S)[nH]c1=O)N2 (stereo not drawn)	i
Cc1[nH]c2ccccc2c1C(=O)CSc1nnc(N)s1	i
O=C(Nc1cccc2ccccc12)C1CCN(S(=O)(=O)c2ccccc2)CC1	i
COc1ccccc1C(=O)Nc1ccc(-c2csc(C)n2)cc1	i
CCCCOc1ccc(C(=O)NC(=S)Nc2ccccc2[N+](=O)[O-])cc1	i
CCC(Oc1cccc(NC(=O)c2ccccc2[N+](=O)[O-])c1)C(=O)c1ccccc1 (stereo not drawn)	5%
Cc1ccc(/C(N)=N/OC(=O)C(C)Oc2ccc(Cl)cc2Cl)cc1 (stereo not drawn)	i
COc1ccc(C(C)(C)C)cc1NC(=S)Nc1ccc(Br)cc1Cl	i
CCOC(=O)c1cnc2c(-c3ccc(Cl)cc3)c(C)nn2c1C	i
C=CCNC(=O)c1ccccc1SC	4%
COc1ccc(OC)c(NC(=O)C(CC(=O)O)Cc2ccc(C)cc2)c1 (stereo not drawn)	0%
CCOC(=O)c1c(C)nc(Nc2nc3ccccc3o2)nc1-c1ccccc1	i
COc1ccc(NC(=O)c2ccco2)cc1NC(=S)NC(=O)Cc1ccc(Cl)cc1	i
CCOC(=O)c1cnn2c(C(F)(F)F)cc(-c3ccc(F)cc3)nc12	i
CCOC(=O)c1[nH]c2c(c1C)C(Cl)=C(C=O)CC2	1%
COc1ccc(N(C(=O)c2ccccc2)S(=O)(=O)c2cccc3cccnc23)cc1	3%
COc1ccc2nc(NS(=O)(=O)c3cc(Cl)ccc3Cl)sc2c1	i
COc1cccc(C(C)NC(=O)c2sc3cccc(Cl)c3c2Cl)c1 (stereo not drawn)	i
O=C1NC(=O)C(CCc2ccncc2)(Cc2cccs2)C(=O)N1c1ccccc1F (stereo not drawn)	i
CCCCn1c(CCCN2C(=O)c3ccccc3C2=O)nc2ccccc2c1=O	i
CCc1ccccc1NC(=O)C1CCN(S(=O)(=O)c2cc(Cl)ccc2Cl)CC1	i
Cc1sc2ncnc(N3CCN(Cc4ccc(Cl)cc4Cl)CC3)c2c1C	21%
COc1ccc(Cc2nnc(NC(=O)c3ccco3)s2)cc1	i
Cc1nnc(NC2=NS(=O)(=O)c3ccccc32)s1	i

Next section
SMILES	Mtb growth
COc1ccc(NC(C)=O)cc1NC(=O)CSc1nnc(-c2ccncc2)n1-c1ccc(C)cc1	i
COc1ccc(C(=O)NC(=S)Nc2ccc3nn(-c4ccc(N(C)C)cc4)nc3c2)cc1Cl	i
CC(C)C(=O)Nc1nc(-c2ccc(Cl)c(Cl)c2)cs1	4%
CCOC(=O)c1c(NC(=O)c2ccccc2Br)sc2ccccc12	i
Cc1ccc(CN2CCN(Cc3ccccc3F)CC2)cc1	i
C=CCOc1cccc(C2/C(=C(\O)c3cnn(-c4ccccc4)c3C)C(=O)C(=O)N2CCN(C)C)c1 (stereo not drawn)	i
CCCN=C(NS(=O)(=O)c1ccc(C)cc1)c1ccccc1	0%
COc1ccc(/C=C/c2nc(N)nc(-c3ccccc3O)n2)cc1	i
CN(c1ccccc1C(=O)Nc1ccccc1-c1ccccc1)S(C)(=O)=O	i
CCOc1ccccc1NS(=O)(=O)c1cc(OC)ccc1OC	i
Cc1c(Cl)cccc1N(CC(=O)N1CCN(Cc2ccccc2)CC1)S(C)(=O)=O	i
COc1ccccc1C(=O)NC1CCS(=O)(=O)C1 (stereo not drawn)	i
CCOC(=O)c1ccc(NC(=O)c2cn(-c3ccccc3)nc2-c2ccncc2)cc1	i
O=c1[nH]c(/C=C\c2cc3ccccc3oc2=O)c([N+](=O)[O-])c(=O)[nH]1	i
CCc1c(C)c2cc(Cl)c(O)c(CN(C)C)c2oc1=O	i
O=C(Nc1cccc2cccnc12)c1ccc(F)cc1	i
Cc1ccccc1C(=O)Nc1cccc(NC(=O)CC23CC4CC(CC(C4)C2)C3)c1	4%
CSc1nnnn1-c1ccc(C)c(C)c1	i
CCOC(=O)c1ccc(NC(=O)c2c([N+](=O)[O-])cnn2C)cc1	i
CCN(CC)C(=O)C1=C(C)NC(=S)NC1c1cccs1 (stereo not drawn)	4%
COCCNC(=S)NNS(=O)(=O)c1ccc(C(C)(C)C)cc1	i
CCOC(=O)c1ccc(COC(=O)c2ccncc2)c(Br)c1	4%
CC(C)(C)c1ccc(S(=O)(=O)Nc2ccc3[nH]c(=O)[nH]c3c2)cc1	2%
C=CCn1c(CNC(=O)c2cccc(C)c2)nnc1SCC(=O)NCc1ccccc1	i
COc1ccc(S(=O)(=O)N2CCCC2)cc1I	i

(continued)
SMILES	Mtb growth
CCOC(=O)c1c(NC(=O)CSc2nc3sc(C)c(C)c3c(=O)n2C)sc2c1CCC2	i
Cc1cc(NC(=S)NC(=O)C(c2ccccc2)c2ccccc2)ccc1NC(=O)c1ccccc1	16%
CCOC(=O)c1c(NC(=O)c2cccc(OC)c2)sc(C(=O)OC(C)C)c1C	i
O=C(c1ccccc1F)n1cnc2ccccc21	i
CCC1CCCCN1C(=O)c1c(-c2ccccc2)noc1C (stereo not drawn)	i
CS(=O)(=O)N(CC(=O)Nc1c(F)cccc1F)c1cccc(Cl)c1Cl	i
CCN(C(=O)COc1ccc(Br)cc1)c1ccccc1	6%
Nn1cnn2c(SCc3ccccc3)nnc12	1%
O=C(CCc1ccc(S(=O)(=O)NCCc2ccccc2)cc1)Nc1ccc(Br)cc1F	i
COC(=O)Cn1cc(C#N)c2ccccc21	i
COc1cc(OC)cc(C(=O)N2CCC(C(=O)Nc3ccc(Br)cc3)CC2)c1	i
Clc1ccc(-c2nc(Nc3ccc4c(c3)OCCO4)c3ccccc3n2)c(Cl)c1	i
O=C1CCCc2c1cc(C(=O)Nc1cccc(F)c1)c(=O)n2-c1ccc(Cl)cc1	i
CCOC(=O)C1CCN(C(=S)NC2CCCC2)CC1	i
CN(CC(=O)Nc1cc(Cl)ccc1Cl)S(=O)(=O)c1cc(Cl)ccc1Cl	i
Clc1ccc(OCCOc2ccc3c(c2)CCC3)c2ncccc12	1%
COC(=O)Cc1cc(=O)[nH]c(/N=C(\N)Nc2ccc(Oc3ccccc3)cc2)n1	i
C=CCn1c(SCC(=O)Nc2ccc(F)c(Cl)c2)nc2sc3c(c2c1=O)CCCC3	i
O=C(NCCC12CC3CC(CC(C3)C1)C2)c1ccc(Cl)cc1Cl	i
CCOc1ccc(N2C(=O)CCC2=O)cc1	i
CCC(C)C(NC(=O)c1ccccc1NC(=O)c1ccccc1)C(=O)N1CCOCC1 (stereo not drawn)	i
CCCCc1nnc(NC(=O)COC)s1	i
CC(C)(C)C(=O)Nc1sc2c(c1C(=O)Nc1cccc3ccccc13)CCC2	i
O=C(Nc1sc2c(c1C(=O)O)CCC2)c1ccc(F)cc1	25%
CCc1ccc(OCC(=O)NCCC2=CCCCC2)cc1	6%

Reformatted with each value named: entries from further up
Structure: CCc1ccc(OCC(=O)NCCC2=CCCCC2)cc1
  Mtb growth: 6%

Structure: CCOC(=O)C1CCN(C(=S)NC2CCCC2)CC1
  Mtb growth: i

Next entries
SMILES	Mtb growth
CSc1ccccc1NC(=O)CN(C)S(=O)(=O)c1ccccc1	i
CC(C)Nc1nc(NC(C)C)nc(Oc2ccc(OCCOc3ccccc3)nn2)n1	6%
O=C(CSc1nc2sc3c(c2c(=O)n1-c1ccccc1)CCC3)c1ccco1	i
Cc1ccc(NC(=O)CN(c2cc(C)ccc2C)S(=O)(=O)c2ccccc2)c(C)c1	i
Cn1c(=O)c2cn3c4ccccc4nc(-c4ccncc4)c3c2n(C)c1=O	i
CNc1cc(N2CCN(C(=O)c3cccc(Br)c3)CC2)ccc1[N+](=O)[O-]	1%
Cc1ccc2c(Cl)c(C(=O)Nc3ccc(S(=O)(=O)Nc4ncccn4)cc3)sc2c1	1%
Cc1c(Cl)cccc1NC(=O)c1ccc(OCC(=O)Nc2ccc(F)cc2)cc1	i
COc1cc(S(=O)(=O)NCc2cccs2)c(OC)cc1Cl	i
O=C(Cc1c(F)cccc1Cl)Nc1ccc(S(=O)(=O)NCC2CCCO2)cc1 (stereo not drawn)	i
CCOC(=O)C1C(=O)OC(C)(C)C1C(C)C(=O)c1ccc(OC)cc1 (stereo not drawn)	i
O=C(CSc1nnc(Cc2ccccc2)n1C1CCCCC1)NC1CCCCC1	i
COc1ccc(OC)c(NC(=O)c2cccc(C)c2[N+](=O)[O-])c1	i
COC(=O)COc1ccc(S(=O)(=O)Nc2cc(Cl)ccc2OC)cc1	i
CC(=O)CSc1nc2scc(-c3cccs3)c2c(=O)n1-c1ccccc1	i
COC(=O)C12CC3CC(CC(N)(C3)C1)C2	3%
c1ccc2c(c1)oc1c(N3CCN(Cc4ccc5c(c4)OCO5)CC3)ncnc12	i
O=C(NC(=S)NC1CCCCC1)c1ccc(F)cc1	8%
COc1ccc(CN2CCN(C(=O)c3cc(OC)c(OC)c(OC)c3)CC2)c(OC)c1	i
COc1cccc(NC(=O)CSC2=C(C#N)C(c3ccc(OCc4ccccc4)cc3)C3=C(CCCC3=O)N2)c1 (stereo not drawn)	i
COC(=O)c1ccccc1NC(=O)CN(C1CCCCC1)S(C)(=O)=O	i
CCOc1cc(CO)cc(I)c1OC(C)C	2%
O=C(CN1C(=O)c2ccccc2C1=O)N1CCCCCC1	i
C=CCNC(=O)c1ccccc1NC(=O)c1ccc(Cl)cc1	2%
CCOC(=O)c1ccccc1NC(=O)Nc1cccc(C(C)=O)c1	i

Among those listed so far, these have an NH in an aromatic ring:
SMILES	Mtb growth
O=C1CCCC2=C1C(c1cccc(F)c1)c1c([nH]c(=S)[nH]c1=O)N2 (stereo not drawn)	i
Cc1[nH]c2ccccc2c1C(=O)CSc1nnc(N)s1	i
CCOC(=O)c1[nH]c2c(c1C)C(Cl)=C(C=O)CC2	1%
O=c1[nH]c(/C=C\c2cc3ccccc3oc2=O)c([N+](=O)[O-])c(=O)[nH]1	i
CC(C)(C)c1ccc(S(=O)(=O)Nc2ccc3[nH]c(=O)[nH]c3c2)cc1	2%
COC(=O)Cc1cc(=O)[nH]c(/N=C(\N)Nc2ccc(Oc3ccccc3)cc2)n1	i

5 entries from above, sorted by molar mass, descending:
SMILES	Mtb growth
c1ccc2c(c1)oc1c(N3CCN(Cc4ccc5c(c4)OCO5)CC3)ncnc12	i
COC(=O)c1ccccc1NC(=O)CN(C1CCCCC1)S(C)(=O)=O	i
CCOC(=O)C1C(=O)OC(C)(C)C1C(C)C(=O)c1ccc(OC)cc1 (stereo not drawn)	i
COc1ccc(OC)c(NC(=O)c2cccc(C)c2[N+](=O)[O-])c1	i
C=CCNC(=O)c1ccccc1NC(=O)c1ccc(Cl)cc1	2%

New compounds follow.
SMILES	Mtb growth
O=[N+]([O-])c1ccc(N2CCN(S(=O)(=O)Cc3ccccc3)CC2)cc1SCc1ccco1	i
Cc1ccc(NC(=O)c2cc(NC(=O)Cc3ccccc3)ccc2N2CCOCC2)cc1	i
CSc1ccccc1NS(=O)(=O)c1ccccc1	4%
CC(Oc1ccc(C(C)(C)C)cc1)C(=O)NC1CCCCC1 (stereo not drawn)	2%
CN(Cc1ccccc1)C(=O)CN(C1CCCCC1)S(C)(=O)=O	i
O=C(CSc1ncnc2sc3c(c12)CCCC3)N1CCOCC1	i
O=C1CC(Nc2ccc(N3CCOCC3)cc2)C(=O)N1c1cccc2ccccc12 (stereo not drawn)	3%
Cc1ccc(NC(=S)N2CCOCC2)c(C)c1	i
COc1ccc(Nc2nc(=O)[nH]nc2C)cc1	0%
NS(=O)(=O)c1ccc(NC(=S)Nc2ccc(Cl)cn2)cc1	47%
CCOC(=O)Cn1nc(C(F)(F)F)c(Cl)c1C	i
CCC(=O)NC(=S)Nc1cc(Cl)ccc1N1CCN(C(=O)CC)CC1	i

Source: PubChem

Some of the compounds tested (hit frequency here may not be typical).
